From PubChem BioAssay
LANA-H2B inh = blockers of LANA interaction with H2A/H2B – biochemical, FP readout, HTS, primary screen | inhibition, % (concentration not given with the values) | 0.6% of 320,000 active | cell-free LANA-H2A/H2B peptide, fluorescence polarization | AID 2629, 2010; in the data active = inhibition mostly above about 10%, no sharp cut-off; inactive = mostly below about 6.7%;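 note: stock transfer was 7.5 nL into about 10 µL; 0% = median of vehicle wells and 100% = median of positive control wells; one replicate is shown; the record names a cut of 25% in any replicate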
Beta2AR agonist = beta2AR agonists driving receptor internalization, primary screen, cell-based, FAP fluorogen, flow cytometry. Beta-2 adrenergic receptor (Homo sapiens), P07550. response, % (no concentration beside the values). 0.43% of 340,000 active. Am2.2-beta2AR cells; reference of the scale not given here;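 active = response above a set limit, near 3 SD of response in nonfluorescent compounds, cut at about 42% in these data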;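 note: stock transfer was 100 nL into about 11 µL; a reference agonist was the positive control; negative values mostly stem from fluorescent compounds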
Target sequence (P07550 whole entry, looked up): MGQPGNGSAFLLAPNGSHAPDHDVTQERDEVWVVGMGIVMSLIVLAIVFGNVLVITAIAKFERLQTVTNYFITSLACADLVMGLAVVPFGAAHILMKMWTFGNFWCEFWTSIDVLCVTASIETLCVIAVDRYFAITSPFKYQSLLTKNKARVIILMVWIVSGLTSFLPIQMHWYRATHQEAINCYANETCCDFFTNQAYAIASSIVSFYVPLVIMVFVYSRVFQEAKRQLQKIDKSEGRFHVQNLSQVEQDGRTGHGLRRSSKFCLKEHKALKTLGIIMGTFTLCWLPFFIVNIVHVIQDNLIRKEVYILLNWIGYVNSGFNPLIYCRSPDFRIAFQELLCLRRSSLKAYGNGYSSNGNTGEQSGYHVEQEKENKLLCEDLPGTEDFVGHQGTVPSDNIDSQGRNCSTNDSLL
FGF22 binding = binders of human FGF22 protein, primary screen, FGF22 synaptogenesis inhibitor project, biophysical, thermal shift, single point | 1.5% of 340,000 active | Fibroblast growth factor 22 (Homo sapiens), Q9HCT0 | calls only at 9.99 µM | recombinant FGF22 thermal shift, SYPRO orange fluorescence; percent of sucrose octasulfate shift, DMSO zero;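 active = melting point raised past a set limit in the mean and every replicate; three in four hits are not shown here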
Target sequence (Q9HCT0 whole entry, looked up): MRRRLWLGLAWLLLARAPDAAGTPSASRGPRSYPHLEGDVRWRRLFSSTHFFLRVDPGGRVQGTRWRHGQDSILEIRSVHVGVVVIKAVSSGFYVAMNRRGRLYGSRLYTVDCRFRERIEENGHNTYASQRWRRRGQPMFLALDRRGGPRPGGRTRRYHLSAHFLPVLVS
UCH37 DUB inh = inhibitors of human UCH37 deubiquitinase, primary screen, biochemical, Ub-AMC cleavage, fluorescence | Ubiquitin carboxyl-terminal hydrolase isozyme L5 (Homo sapiens), Q9Y5K5 | purified proteasome/UCH37 | inhibition, % (test concentration not listed) | 0.33% of 330,000 active | AID 588478, 2011;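 active = mean of two replicates above 20%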;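 note: 0% = compound-free wells with enzyme and 100% = wells lacking proteasome; stock transfer was 100 nL into about 20 µL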
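Test system – human UCH37 enzyme supplied as purified proteasome complex · Incubation – 30 min preincubation with enzyme, 25 min cleavage at room temperature · Detection – AMC fluorescence from Ub-AMC cleavage, excitation 355 nm, emission 460 nm · Benchmarks – no-proteasome wells (full inhibition) and compound-free wells (no inhibition)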
ALR H2O2 inh = inhibitors of human ALR sulfhydryl oxidase, primary screen, biochemical, H2O2 detection, HRP-luminol luminescence, single point | AID 485317, 2010 | inhibition, % (concentration not given with the values) | 3.8% of 290,000 active | purified ALR, DTT oxidation;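 active = mean and each replicate at 75% or more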;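 note: stock transfer was 7.5 nL into about 7.5 µL; 0% = neutral wells and 100% = wells with inactivated enzyme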
Target sequence (P55789 whole entry, looked up): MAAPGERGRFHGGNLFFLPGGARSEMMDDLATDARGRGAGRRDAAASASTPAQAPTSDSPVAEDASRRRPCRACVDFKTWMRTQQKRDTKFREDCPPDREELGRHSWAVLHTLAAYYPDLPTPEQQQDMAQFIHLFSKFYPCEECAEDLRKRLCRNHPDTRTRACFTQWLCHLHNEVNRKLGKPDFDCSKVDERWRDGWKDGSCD
HNF4A DNA FP = change in binding of human HNF4A to DNA, primary screen, biochemical, fluorescence polarization, FITC-DNA. Hepatocyte nuclear factor 4-alpha (Homo sapiens), P41235. activity change, % at 10 µM. 0.3% of 360,000 active. 1 h; in the data active = activity change above about 30%, passing the limit was not always enough;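 note: controls were the assay level and a saturating level of protein; the project sought stronger binding though the title names inhibitors; some compounds called inactive have numbers as strong as hits; positive values seem to mean higher polarization but the record does not say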
Ecoli growth = E. coli growth inhibition, primary screen, OD600; Escherichia coli growth, 23 h; stronger effect = lower value; AID 1053175, 2014; 0.21% of 330,000 active; OD600 absorbance (no concentration beside the values);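 active = OD600 absorbance below the run mean of sample wells minus 3.6 SD, in any replicate, cut at about 0.56 in these data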;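 note: stock transfer was 300 nL into about 60 µL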
Active calls of the source: *; i = inactive; / = not tested or not shown. Only part of the results is shown; count on the stated rates, not on these rows.

Results follow in this order: LANA-H2B inh, Beta2AR agonist, FGF22 binding, UCH37 DUB inh, ALR H2O2 inh, HNF4A DNA FP, Ecoli growth
COc1ccc(C(=O)NCCCc2nc3ccccc3n2Cc2cc(C)ccc2C)cc1OC
 : 0.9, 4, i, 0.7, -52, 3.2, 0.77
COc1ccccc1NC(=O)c1c(C)cc(=O)oc1C
 : 4.9, 4, i, 3.2, -12, -5.4, 0.7
CCOCCCNC(=O)C1CCC(=O)N1CCc1ccccc1 (stereo unspecified)
 : 0.6, 5, /, -2.4, -10, 1.1, 0.73
CC1(C)Cc2ccccc2-c2nnc(SCc3ccc(C#N)cc3)n21
 : -0.1, 0, /, 0.9, 13, 1.6, 0.69
COCCCNc1nc2c(-c3cccc(C)c3)nnn2c2ccc(Cl)cc12
 : 1.9, 0, i, -96, 0, -3.8, 0.7
CCN(CC)S(=O)(=O)c1ccc(C(=O)OCC(=O)Nc2sc3c(c2C#N)CCCCC3)cc1
 : 1.2, -3, /, 3.6, /, 2.4, 0.72
C[C@]12c3[nH]c4cc(-c5ccco5)ccc4c3CCN1C(=O)[C@@H](CC(=O)NCCC1=CCCCC1)C[C@@H]2C(=O)N1CCCCC1
 : /, 7, i, -11, /, 1.0, 0.73
COc1ccc(N(CC(=O)NCc2ccc3c(c2)OCO3)C(=O)CCC(=O)Nc2ccccn2)cc1
 : 0.7, 1, i, 1.8, 2, 3.3, 0.73
COC(=O)c1sccc1NC(=O)CC1NCCNC1=O (stereo unspecified)
 : -4.9, -4, i, 4.4, -4, -1.9, 0.65
N#Cc1cc([N+](=O)[O-])ccc1NCCN1CCOCC1
 : -1.7, 3, i, 11, -8, 0.4, 0.71
CN(C)CC(=O)c1c[nH]c2ccccc12
 : -2.0, -25, /, 0.4, -8, 4.7, 0.72
CCC(CC)C(=O)c1c[nH]c(C(=O)NCCc2ccccn2)c1
 : -1.5, -7, /, 3.1, -24, -1.6, 0.74
COCCNC(=O)CSc1nc2ccccc2c(=O)n1-c1cccc(OC)c1
 : /, -8, /, 6.0, /, 1.9, 0.73
CC(Oc1coc(CN2CCN(C(=O)c3ccco3)CC2)cc1=O)c1ccccc1 (stereo unspecified)
 : 1.4, 0, i, 0.8, -6, 3.6, 0.69
O=C(CSc1nc2ncccc2[nH]1)c1cccc([N+](=O)[O-])c1
 : 2.2, -9, /, 3.1, 41, -2.6, 0.68
COc1ccc(CCN(C)C(=O)c2ccc(OCC(=O)N3CCOCC3)c(OC)c2)cc1OC
 : -0.4, 5, i, 4.1, -5, 3.2, 0.7
CCC(=O)Nc1cccc(C(=O)N(Cc2ccccc2)Cc2ccccc2)c1
 : 1.3, -7, i, 3.8, 35, 3.7, 0.7
CN1CCN(CCCNC(=O)C2CCN(c3nnc(-n4cccc4)s3)CC2)CC1
 : -4.2, -3, /, 1.6, -19, 4.4, 0.73
O=C(NCc1ccccc1Br)C1CCCO1 (stereo unspecified)
 : 1.3, -7, i, -0.3, -29, 0.4, 0.72
C=C(CC[C@@H](O)C(C)(C)O)[C@H]1CC[C@]2(C)[C@@H]1CCC1[C@@]3(C)CCC(=O)C(C)(C)C3CC[C@]12C (stereo partly specified)
 : 0.9, 14, i, 1.6, 1, 0.4, /
CCCCNc1c(-c2ccc(OC)c(SC(C)CC)c2)nc2ccc(Cl)cn12 (stereo unspecified)
 : 9.5, -7, i, -25, 6, 9.6, 0.68
O=C(N/N=C/C(Cl)=C\c1ccccc1)c1ccco1
 : -0.9, 7, i, /, -1, 3.9, /
N#CCCS(=O)(=O)c1ccc(N)cc1
 : 3.8, 9, /, 1.2, 0, 0.3, 0.64
COc1ccc(-c2nc(CS(=O)CC(=O)NCc3ccccn3)c(C)o2)cc1 (stereo unspecified)
 : 0.7, 3, /, 2.5, /, -12, 0.73
CCOC(=O)c1cnc2c(cnn2C)c1NCc1ccc(OC)cc1
 : -1.6, 1, i, 4.5, -7, 2.0, 0.72
COc1ccc(C/C(N)=N/O)cc1
 : -0.8, 4, /, 2.7, -6, 3.8, 0.68
CC1CN(C(=O)Cn2cc(S(=O)(=O)CC(=O)N3CCOCC3)c3ccccc32)CC(C)O1 (stereo unspecified)
 : -3.4, 5, i, 0.8, -6, -0.3, 0.67
Nc1nc(SCc2ccccc2)c2[nH]cnc2n1
 : -1.1, -8, i, -0.6, -3, 0.0, 0.67
CC(C)Oc1ccc(/C(O)=C2/C(=O)C(=O)N(CCN3CCNCC3)C2c2cccc([N+](=O)[O-])c2)cc1 (stereo unspecified)
 : 3.7, 8, i, 6.6, 7, 2.4, 0.67
COCCCNC(=S)Nc1cc2oc3ccccc3c2cc1OC
 : -0.4, -1, i, 0.3, 7, 1.9, 0.65
CCN(Cc1ccncc1)C(=O)CCc1nnc(CCc2ccccc2OC)o1
 : -0.6, -1, i, 4.2, -13, 3.5, 0.7
CC(Oc1cccc(Cl)c1)C(=O)Nc1cc(Cl)ccc1N1CCOCC1 (stereo unspecified)
 : -6.4, 0, i, -0.6, 0, 1.7, 0.7
COCCNC(=S)N(CCc1c(C)[nH]c2ccc(F)cc12)Cc1cccs1
 : 3.2, -1, i, 5.0, 14, -0.5, 0.71
CN(C)Cc1c(C(=O)N/N=C/c2cccnc2)nnn1-c1nonc1N
 : -1.5, -7, i, /, 0, -5.3, /
CCCNc1nc(Nc2ccc(C)c(Cl)c2)c2cnn(C)c2n1
 : 0.6, 20, i, -50, /, 0.2, 0.66
O=C(C1CC1)N1CCN(c2ccnc3cc(Cl)ccc23)CC1
 : 4.5, -10, i, 5.1, -8, -2.9, 0.67
O=C(Nc1ccccc1C(F)(F)F)c1ccccc1Br
 : -0.4, -9, /, /, 2, 4.0, /
COc1cccc(N2CCN(c3nc(C)cc(=O)[nH]3)CC2)c1
 : -1.3, 1, i, 1.7, 28, 2.5, 0.67
N#Cc1ccccc1OCC(=O)N1N=C(c2cccs2)CC1c1ccco1 (stereo unspecified)
 : -5.3, 8, i, -7.1, /, 4.4, 0.65
CNC(=S)N(Cc1cccs1)Cc1cc2cc(OC)ccc2[nH]c1=O
 : 4.7, 0, /, -34, 2, -3.2, 0.71
COc1ccc(NC(=O)CSc2nnc3ccc(-c4cccnc4)nn23)cc1OC
 : -1.9, -6, i, 0.9, -13, 1.7, 0.71
Nc1csnc1C(=O)O
 : 1.6, 8, /, 4.8, 1, 4.0, 0.69
Cc1ccc(/C=N/NC(=O)CSc2nnc(-c3ccccc3)n2-c2ccc(Cl)cc2)o1
 : 0.4, -3, i, /, -75, 0.2, /
CC(C)(C)OC(=O)NCc1ccc(NC(=O)c2nc[nH]c2C(=O)NCCNC(=O)c2[nH]cnc2C(=O)Nc2ccc(CNC(=O)OC(C)(C)C)cc2)cc1
 : -5.7, 18, /, 0.1, -4, 8.2, 0.71
COc1ccc(C2(C)NC(=O)N(CC(=O)NCc3ccccc3)C2=O)cc1OC (stereo unspecified)
 : 25*, 9, i, 2.1, /, 0.9, 0.65

Looked up by structure from the entries so far:
Results follow in this order: LANA-H2B inh, Beta2AR agonist, FGF22 binding, UCH37 DUB inh, ALR H2O2 inh, HNF4A DNA FP, Ecoli growth
Nc1csnc1C(=O)O
 : 1.6, 8, /, 4.8, 1, 4.0, 0.69
COCCNC(=S)N(CCc1c(C)[nH]c2ccc(F)cc12)Cc1cccs1
 : 3.2, -1, i, 5.0, 14, -0.5, 0.71
CCN(Cc1ccncc1)C(=O)CCc1nnc(CCc2ccccc2OC)o1
 : -0.6, -1, i, 4.2, -13, 3.5, 0.7

Following part:
Results follow in this order: LANA-H2B inh, Beta2AR agonist, FGF22 binding, UCH37 DUB inh, ALR H2O2 inh, HNF4A DNA FP, Ecoli growth
COc1ccc(C(=O)Nn2c(C)nc3ccccc3c2=O)cc1OC
 : -3.1, 6, i, 2.3, /, 4.7, 0.67
CC(=O)Cc1nsc(Nc2cccc(C)c2)n1
 : -0.8, 3, i, /, /, 1.2, /
CCCOC(=O)c1c(NC(=O)CSc2nc(-c3ccco3)cc(C(F)(F)F)n2)sc(C(=O)OC)c1C
 : -3.5, -6, /, 0.9, -16, -4.2, 0.69
COc1ccc(CNC(=O)N2CCN(S(=O)(=O)c3ccccc3)CC2)cc1
 : 0.2, 1, i, 5.3, -22, 0.6, 0.61
CC(C)(C)c1csc(NC(=O)c2ccccc2O)n1
 : 0.8, 11, i, -227, 81*, -0.9, 0.59
CCC(=O)N1c2ccccc2NC2=C(C(=O)CCC2)C1c1ccc(N(C)C)cc1 (stereo unspecified)
 : 0.9, 7, /, 8.4, 2, 2.4, 0.69
CN(CCO)c1cnccn1
 : 14*, -3, i, /, -4, -0.8, /
COc1ccc(CNS(=O)(=O)c2cc3c4c(c2)CCN4C(=O)CC3)cc1
 : /, -2, /, 5.8, /, -2.4, 0.69
CN(C)c1ccc(NC(=O)N2CCOCC2)cc1
 : -12, -5, /, 2.1, 99*, 5.7, 0.71
Nc1[nH]n2c(=O)cc(-c3ccccc3)nc2c1N=Nc1ccc(S(N)(=O)=O)cc1
 : 2.8, 8, i, 12, -20, 3.9, 0.74
N#CCCN(C(=O)CSc1nc2nc(-c3cccs3)cc(C(F)(F)F)c2c(=O)[nH]1)c1ccccc1
 : -2.2, 5, i, -160, 6, -1.4, 0.67
COc1cccc2c1OCC(C(=O)Nc1nccs1)=C2
 : 1.6, -4, i, 5.2, -5, 3.2, 0.68
Cc1ccc(C(=O)O/N=C(\N)c2ccccn2)c(Cl)c1
 : -4.6, 1, i, 1.8, 91*, 3.3, 0.7
CC(=O)N1CCc2cc(S(=O)(=O)CCC(=O)NCc3cccs3)ccc21
 : 0.1, -12, /, 1.5, -1, -1.1, 0.69
COc1ccc(OC)c(S(=O)(=O)Nc2ccc(-c3ccc4nncn4n3)cc2)c1
 : 6.1, 9, i, 5.0, -9, 1.5, 0.65
CCN(Cc1nc2cc(Cl)ccc2c(=O)[nH]1)C(=O)COc1ccccc1Cc1ccccc1
 : /, 7, i, 0.4, /, 5.4, 0.67
CCOc1cnn(-c2ccccc2)c(=O)c1Cl
 : 7.2, 0, i, 3.2, 96*, -2.5, 0.67
CN1CCN(S(=O)(=O)c2cccc([N+](=O)[O-])c2)CC1
 : -5.1, -1, i, 4.6, -11, 2.9, 0.69
CCn1ccc(C(=O)Oc2ccc(Cl)cc2)n1
 : 5.3, 3, /, 0.3, 0, -2.9, 0.71
FC(F)(F)COc1nc(N2CCCCC2)nc(N2CCNCC2)n1
 : -2.5, -11, /, 6.0, -10, -0.1, 0.76
O=C1C(c2cc(=O)c3ccccc3[nH]2)=C(O)c2ccccc21
 : -0.2, 10, /, 9.6, 5, 0.1, 0.65
O=C(O)c1ccc(Cl)c(S(=O)(=O)Nc2ccc3[nH]c(=O)[nH]c3c2)c1
 : -0.5, -2, i, -6.1, 31, -5.8, 0.65
CC(C)(C)OC(=O)N/N=C/c1ccc(C(=O)O)cc1
 : 0.0, 1, /, /, -23, 0.6, /
O=c1oc(-c2ccccc2[N+](=O)[O-])nc2ccccc12
 : -0.9, 9, /, -3.3, 3, -0.4, 0.78
O=C(COC(=O)CSc1ccc(Cl)cc1)Nc1ccccc1
 : -1.4, 0, i, 3.3, -1, 0.7, 0.66
Cc1ccc2oc(=O)n(Cc3ccccc3)c2c1
 : 6.0, -7, i, 6.0, -26, 4.4, 0.69
COC(=O)Cc1ccc(NC(=S)NC2CC2)cc1
 : 2.8, 4, i, 3.4, -4, -1.0, 0.7
Cc1csc(=O)n1CCC(=O)OC(C)C(=O)NCc1ccccc1 (stereo unspecified)
 : /, -3, i, 3.9, /, -0.1, 0.69
Cc1ccc(Nc2nnns2)cc1
 : 5.2, 6, /, 2.2, -2, 1.4, 0.68
COc1cccc(NC(=O)c2cnn(-c3ccccc3)c2C)c1
 : 3.4, 1, i, 2.2, -3, -3.4, 0.69
